# Screens: PubChem, National Center for Advancing Translational Sciences (NCATS)
# NS1 function inh: influenza NS1 inhibition | S. cerevisiae slowed by influenza A NS1, growth recovery by OD600 | Potency, µM (series often up to 46.1 µM), for the others: at the top dose activity, positive = more growth | hit rate 0.4% among 270,000 | AID 2326; active means well fitted rising curve with a large enough effect; inconclusive means small, poorly fitted or top-dose-only effect; inactive means no such curve, though single readings can be large or run the other way; also: nearly all actives have a fitted effect of over 50% in size
#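 Compounds were scored for reversing the slow growth caused by influenza A NS1 in S. cerevisiae, measured by optical density at 600 nm. Assay medium contained 2% galactose at pH 6.0; NS1-free yeast of the same strain were the positive control.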
# Cruzain noTriton: cruzain (T. cruzi) inhibition without detergent; P25779; purified cruzain, Z-FR-AMC fluorescence, no detergent; Potency, µM, inactives show max response, negative = inhibition, hits mostly inhibitors; hit rate 2.3% among 200,000;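 also: plate controls were enzyme without inhibitor for no effect and buffer without enzyme for full effect; nearly all actives have a fitted effect of over 40% in size; top concentration of the series not given in the record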
# Target sequence (P25779 123-467 limits assumed): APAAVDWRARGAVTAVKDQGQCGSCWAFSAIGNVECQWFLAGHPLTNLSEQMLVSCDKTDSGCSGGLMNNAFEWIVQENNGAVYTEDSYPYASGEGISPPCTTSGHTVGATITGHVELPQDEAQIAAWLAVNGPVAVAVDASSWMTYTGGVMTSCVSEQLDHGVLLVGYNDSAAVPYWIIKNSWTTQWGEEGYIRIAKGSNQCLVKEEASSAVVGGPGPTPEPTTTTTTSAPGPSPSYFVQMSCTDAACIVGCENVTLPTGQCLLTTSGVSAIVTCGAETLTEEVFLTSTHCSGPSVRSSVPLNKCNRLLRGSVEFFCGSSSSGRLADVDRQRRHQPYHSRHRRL
#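 Detergent-free condition (0.00005% Triton X-100) in acetate buffer pH 5.5 with DTT. 1.5 nM enzyme and compound were pre-mixed 15 min, then 2 uM Z-FR-AMC substrate added; reaction progress from fluorescence change between first and third reads (60 s).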
# 2A StopGo: FMDV 2A StopGo reporter, luciferase signal | human cells with a luciferase reporter of 2A StopGo recoding; control for the full effect not named in the record | Potency, µM (titrated, usually from 57.9 µM), without a hit: top-dose signal change, negative = less light | hit rate 1.2% among 410,000 | AID 1159524; active = well fitted falling curve with a large enough effect; inconclusive = small, poorly fitted or top-dose-only effect; inactive = no such curve, though single readings can be large or run the other way; tested in HEK293T cells; also: % is scaled to controls: 0 for no effect and ±100 for the full control effect; nearly all actives have a fitted effect of over 45% in size; luciferase light after 4 h
# MARV entry inh: blocks Marburg virus binding to or entry into cells; Marburg virus pseudotyped entry inhibition, cell reporter; control for the full effect not named in the record; about a third of the inactives were read at about 46 µM; Potency, µM (highest dose often 37.8 µM), without a hit: top-dose activity change, negative = inhibition, actives largely listed as inhibitors; hit rate 1.8% among 300,000; active = well fitted inhibition curve with a large enough effect; inconclusive = small, poorly fitted or top-dose-only effect, or effect the other way; inactive = flat fitted curve, though single readings scatter; tested in HEK293 cells; about a fifth of its hits are not listed in these tables; also: % is scaled to controls: 0 for no effect and ±100 for the full control effect; luciferase read-out
# Lassa entry inh: inhibitors of Lassa virus binding or cell entry; Lassa virus pseudotype entry inhibition, cell reporter; control for the full effect not named in the record; Potency, µM (titrated, usually from 37.9 µM), for inactives: at the highest dose activity change, negative = inhibition, usual class: inhibitors; hit rate 1.2% among 300,000; active means well fitted inhibition curve with a large enough effect; inconclusive means small, poorly fitted or top-dose-only effect, or effect the other way; inactive means flat fitted curve, though single readings scatter; tested in HEK293 cells; also: % is scaled to controls: 0 for no effect and ±100 for the full control effect; nearly all actives have a fitted effect of over 50% in size; luciferase read-out
# SARS PLpro yeast: inhibitors of SARS-CoV papain-like protease in yeast; S. cerevisiae expressing SARS-CoV PLpro, growth rescue; control for the full effect not named in the record; AID 485353; hit rate 0.19% among 330,000; Potency, µM (titrated, usually from 32.9 µM), without a hit: at the top dose activity, positive = growth rescue; active means well fitted rising curve with a large enough effect; inconclusive means small, poorly fitted or top-dose-only effect; inactive means no such curve, though single readings can be large or run the other way; also: 0% is about no effect; nearly all actives have a fitted effect of over 55% in size; growth read by luminescence after 48 h
# RE007 growth inh: less growth of the S. pombe RE007 Vpr strain. hit rate 0.21% among 360,000. AID 651644. S. pombe RE007 Vpr strain, BacTiter-Glo ATP luminescence, 24 h; control for the full effect not named in the record. Potency, µM (top dose mostly 92.2 µM), without a hit: at the highest dose activity change, negative = less growth; active = well fitted falling curve with a large enough effect; inconclusive = small, poorly fitted or top-dose-only effect; inactive = no such curve, though single readings can be large or run the other way;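 also: % is scaled to controls: 0 for no effect and ±100 for the full control effect; nearly all actives have a fitted effect of over 50% in size; the assay follows cell death caused by Vpr and the record does not say whether a fall means rescue or toxicity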
#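 Fission yeast RE007 carrying one integrated HIV-1 vpr copy, seeded at OD 0.01 in PMG+AL medium with 23 nL pinned compound. Grown 24 h at 30 degrees; viability read by BacTiter-Glo luminescence after 5 min.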
# Cruzain Triton: blocks cruzain activity in presence of Triton detergent; Potency, µM, without a hit: max response, negative = inhibition, hits mostly inhibitors; P25779; AID 1478; hit rate 0.43% among 200,000; purified cruzain, Z-FR-AMC fluorescence, 0.01% Triton;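 also: plate controls were neutral wells for no effect and buffer without enzyme for full effect; nearly all actives have a fitted effect of over 40% in size; top concentration of the series not given in the record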
#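 Cysteine protease activity tested under reducing, mildly acidic conditions (100 mM sodium acetate pH 5.5, 5 mM DTT) plus 0.01% Triton X-100. Cruzain 1.5 nM; substrate Z-FR-AMC 2 uM; 15 min compound preincubation at room temperature.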
# Active calls of the source: *; ? = inconclusive; . = no result given; & = joins results of further samples; [ ] = dose if it differs, or a comment. Unless noted, calls follow the shape of the dose curve; as a rule, active = well fitted curve in the direction sought with a large enough effect; inconclusive = small, poorly fitted or top-dose-only effect, or another doubt; inactive = no such curve, though single readings can be large; an effect the other way counts as inactive or inconclusive. Potency is read from the fitted curve at half-maximal effect. Compounds as they come; any-hit rate near 4.7%.
SMILES,NS1 function inh,Cruzain noTriton,2A StopGo,MARV entry inh,Lassa entry inh,SARS PLpro yeast,RE007 growth inh,Cruzain Triton
COc1ccc(N2C(=O)C(CC(=O)Nc3ccc(F)cc3)N(Cc3ccc4c(c3)OCO4)C2=O)cc1 (centres undefined),.,-9%,11%,1%[46.1 µM],-2%[46.1 µM],.,.,-3.9%
O=C(O)c1cc(Cl)c(Cl)cc1C(=O)NCc1ccco1,8%,.,1%,7%[46.1 µM],-1%[46.1 µM],0%,40%,.
CCC(C)(NC(=O)CNC(C)=O)C(=O)NC1CCCCC1 (centres undefined),3%,1%,18%,11%,-2%,-1%,9%,2.7%
COc1ccc2c(c1)SCCC2=O,-10%,-8%,8%,16%,1%,6%,1%,0.6%
Cc1ccc(C(C)NC(=O)C2CCCO2)cc1C (centres undefined),0%,-3%,10%,2%,-42%[14.3 µM],-7%,10%,6.4%
COc1ccc(Cn2ccc3nc(C)c(C(=O)N4CCN(c5ccccc5F)CC4)cc3c2=O)cc1,.,?,0%,.,?,.,.,-8.0%
CN(C)CCNc1oc(-c2ccc(COc3ccc(Cl)cc3)o2)nc1C#N,.,3%,-23%,?,11%[46.1 µM],.,.,-2.4%
O=C1CC(c2ccccc2)Sc2ccccc2N1Cc1ccccc1F (centres undefined),.,-7%,10%,-2%[46.1 µM],.,.,.,-5.6%
COc1ccccc1CCNS(=O)(=O)c1ccc(N2CCCCS2(=O)=O)cc1,.,2%,11%,.,-3%[46.1 µM],.,.,-3.1%
CCCOc1ccc(/C=N/NC(=O)C(=O)Nc2ccccn2)cc1,4%,-4%,-1%,8%,1%,-15%,-6%,-1.8%
COc1cccc(/C=C2\SC(=S)N(CCCC(=O)N(CCO)c3ccccc3)C2=O)c1,-30%,.,0%,.,.,9%,9%,.
Cc1ccc(CCNC(=O)CN2C(=O)COc3ccc(S(=O)(=O)N4CCOCC4)cc32)cc1,-2%,.,6%,-1%[46.1 µM],1%[46.1 µM],29%,-13%,.
O=C(N/N=C/C=C/c1ccccc1[N+](=O)[O-])c1cccnc1,0%,.,4%,?,-2%,-1%,8%,.
CCc1ccccc1NC(=O)c1ccc2c(O)c(S(=O)(=O)c3ccccc3)c(=O)[nH]c2c1,.,7%,9%,.,0%[46.1 µM],.,.,0.8%
COc1ccc(N2CCN(C(=O)C3CCN(C(=O)c4cccc(Cl)c4)CC3)CC2)cc1,-9%,.,-9%,-1%[46.1 µM],-1%[46.1 µM],0%,-16%,.
Cc1nc(NNC(=O)c2ccc(Cl)cc2Cl)cc(-c2ccccc2)n1,0%,-1%,-4%,-6%,?,-6%,8%,-0.2%
CCn1c(=O)c2cc(C(=O)N(CCCOC(C)C)Cc3ccco3)sc2c2ccccc21,.,?,-12%,-4%[46.1 µM],-25%[46.1 µM],.,.,-12%
CC(=C1C(=O)c2ccccc2C1=O)N1CCN(Cc2ccccc2)CC1,-4%,-7%,30%,20%,1%,-4%,-9%,3.1%
Clc1ccccc1OCCCCN1CCCCC1,-15%,.,-19%,.,.,-3%,0%,.
CCOC(=O)/C(=N\Nc1ccc(Cl)cc1)Sc1nnc(-c2ccc(OC)cc2)n1C,-15%,22%,14%,13%,-5%,-32%,32%,-11%
O=C(O)c1cccc(NS(=O)(=O)c2ccc(Cl)c(C(=O)Nc3cccc([N+](=O)[O-])c3)c2)c1,.,.,1%,1%,9%,.,-22%,.
CCSC1=N/C(=C\C=C2/Oc3ccccc3N2CC)C(=O)S1,-1%,.,-16%,4%[46.1 µM],-22%[46.1 µM],-3%,6%,.
Cc1ccc(CN2CCSc3ccc(C(=O)N4CCC5(CC4)OCCO5)cc32)cc1,1%,.,59%[activator],?,-12%[46.1 µM],-16%,-4%,.
CC(OC(=O)Cc1ccccc1[N+](=O)[O-])C(=O)Nc1ccc(Cl)cn1 (centres undefined),.,.,-20%,-10%[46.1 µM],0%,-4%,1%,.
CCN(CC)c1cc2nonc2c2nonc12,-31%,-2%,.,6%,4%,-3%,-10%,-2.9%

# (next part)
SMILES,NS1 function inh,Cruzain noTriton,2A StopGo,MARV entry inh,Lassa entry inh,SARS PLpro yeast,RE007 growth inh,Cruzain Triton
O=C(CCC(=O)c1ccc(F)cc1)NCc1ccccc1C(F)(F)F,-6%,.,0%,.,.,3%,-11%,.
COc1ccc(-c2nc(CNC(=O)Nc3ccccc3)c(C)o2)cc1,.,1%,-9%,.,-3%[46.1 µM],.,.,-1.8%
CCn1c(CNC(=O)C2CCCCC2)cc2cc(C)ccc21,9%,.,-6%,?,12%[46.1 µM],5%,?,.
NC(=O)NC(=O)COC(=O)c1ccccc1Oc1ccccc1,-4%,-14%,-3%,?,-4%,-4%,5%,1.8%
CCCN1CCN(C(=O)Cn2ncc3c([nH]c4ccc(C)cc43)c2=O)CC1,0%,.,3%,0%[46.1 µM],25%[46.1 µM],5%,-2%,.
CC(C)CCN(C(=O)c1cn2ccccc2n1)c1c(N)n(Cc2ccccc2)c(=O)[nH]c1=O,.,.,-1%,0%,16%,3%,-2%,.
COc1cccc(C(c2nnnn2Cc2ccco2)N2CCN(Cc3ccccc3)CC2)c1OC (centres undefined),2%,.,18%,?,-29%[46.1 µM],1%,-17%,.
CC(C)Oc1ccc(NC(=O)CCC(=O)O)cc1,2%,8%,17%,21%,-5%,-9%,0%,5.9%
COc1ccccc1CCC(=O)OCC(=O)NCc1ccc(OC)c(OC)c1,.,.,9%,-21%[46.1 µM],-14%[46.1 µM],6%,-8%,.
COc1ccccc1OCCOCCOc1c(C)cc(C)cc1Br,4%,9%,-9%,-10%,-5%,-10%,21%,-4.1%
COc1ccc(S(=O)(=O)NCCc2cn3ccsc3n2)cc1OC,.,-7%,35%[activator],.,9%[46.1 µM],.,.,0.2%
COC(=O)c1ccc(NC(=O)c2cn(-c3ccccc3)nc2-c2ccncc2)cc1,8%,1%,?,13µM*,-15%,0%,13%,3.5%
CC(=O)N1CCN(C(=O)c2ccc3c(c2)OCO3)CC1,.,.,-3%,11%[46.1 µM],14%[46.1 µM],2%,3%,.
N#Cc1ccc(OCC(=O)OCC(=O)NCCC2=CCCCC2)cc1,-9%,-10%,-12%,?,-3%,2%,-15%,2.7%
CC1(c2ccc([N+](=O)[O-])cc2)NC(=O)NC1=O (centres undefined),1%,.,-13%,.,.,-9%,-1%,.
C=CCn1c(=S)[nH]c2ccc(Br)cc2c1=O,-2%,-17%,-20%,18%,2%,-6%,-14%,-4.4%
Cc1ccc(Cl)c(OCC(=O)NC2CCN(Cc3ccccc3)CC2)c1,.,.,-19%,?,-16%,.,-24%,.
C=CCn1cc(C(=O)NCCCOC)c(=O)c2cc(S(=O)(=O)N(CC)CC)ccc21,-6%,24%,0%,-10%,?,-3%,5%,0.0%
COc1cc(C(=O)N2CCN(C(=O)c3cccc4ccccc34)CC2)cc(OC)c1OC,-3%,.,-5%,19%[46.1 µM],.,1%,-1%,.
COc1ccc(Cl)cc1C(=O)NCC(c1ccco1)N1CCCC1 (centres undefined),0%,2%,15%,?,8%,0%,1%,-4.1%
CCC1=NN2C(=N)/C(=C\c3cccn3-c3ccc(C)c(C)c3)C(=O)N=C2S1,.,.,-25%,-11%[46.1 µM],7%[46.1 µM],-1%,-7%,.
Cc1cccc(Nc2nc(-c3c(C)nc4ccccn34)cs2)c1,-11%,3%,.,?,?,-21%,-9%,-6.2%
CNC(=O)C(=O)NCCN1CCN(S(=O)(=O)c2ccc3ccccc3c2)CC1,3%,.,8%,.,.,0%,3%,.
Cc1cc(NS(=O)(=O)c2ccc(Nc3nc(-c4ccc(C)c(C)c4)cs3)cc2)no1,?,-14%,-10%,-14%,-6%,-36%,5%,-11%
COc1ccc(OCC#CCN2CCCCCC2)cc1,.,.,12%,-32%[46.1 µM],-2%[46.1 µM],0%,-17%,.

# (more compounds)
SMILES,NS1 function inh,Cruzain noTriton,2A StopGo,MARV entry inh,Lassa entry inh,SARS PLpro yeast,RE007 growth inh,Cruzain Triton
CCc1ccc(N(C(=O)CNC(=O)c2ccco2)C(C(=O)NC2CCCC2)c2cccnc2)cc1 (centres undefined),-11%,.,-11%,-2%[46.1 µM],.,12%,-6%,.
CCOc1ccc(NC(=O)NCCCN2CCCC2)cc1,0%,-13%,9%,?,2%,5%,5%,2.0%
COc1ccccc1N1CCN(C(=O)c2cc3sccc3n2C)CC1,-36%,?,-25%,?,?,2%,6%,-0.7%
Cc1cccc(C)c1NC(=O)c1cccc(N2C(=O)C3CCC(C)CC3C2=O)c1 (centres undefined),-15%,.,36%[activator],3%,1%,-2%,5%,.
CC(=O)Nc1cccc(C(=O)Nc2ccc(S(=O)(=O)N3CCCCC3)cc2)c1,.,.,0%,22%,2%,0%,19%,.
Clc1cc(Br)ccc1OCCOCCN1CCOCC1,-17%,-9%,15%,8%,20%,1%,4%,2.4%
CN1CCc2c(c3c(n2C)CCN(C)[C@@H]3c2cccnc2)[C@H]1c1cccnc1,0%,-3%,-2%,2%,.,2%&-1%,-1%,4.1%
NC1=NC(=O)/C(=C\c2cccs2)S1,9%,-7%,25%,13%[46.1 µM],13%,0%,2%,-5.3%

# 5 entries picked at random from those above, as already listed:
SMILES,NS1 function inh,Cruzain noTriton,2A StopGo,MARV entry inh,Lassa entry inh,SARS PLpro yeast,RE007 growth inh,Cruzain Triton
C=CCn1c(=S)[nH]c2ccc(Br)cc2c1=O,-2%,-17%,-20%,18%,2%,-6%,-14%,-4.4%
Clc1cc(Br)ccc1OCCOCCN1CCOCC1,-17%,-9%,15%,8%,20%,1%,4%,2.4%
Cc1ccc(CCNC(=O)CN2C(=O)COc3ccc(S(=O)(=O)N4CCOCC4)cc32)cc1,-2%,.,6%,-1%[46.1 µM],1%[46.1 µM],29%,-13%,.
CCn1c(=O)c2cc(C(=O)N(CCCOC(C)C)Cc3ccco3)sc2c2ccccc21,.,?,-12%,-4%[46.1 µM],-25%[46.1 µM],.,.,-12%
COC(=O)c1ccc(NC(=O)c2cn(-c3ccccc3)nc2-c2ccncc2)cc1,8%,1%,?,13µM*,-15%,0%,13%,3.5%
